Bioassay records (PubChem BioAssay)
rRNA inh HTS: inhibitors of bacterial rRNA selective over humanized ribosomes | E. coli WT GFP vs humanized-ribosome RFP mutants, fluorescence, 24 h; stronger effect = lower value; DMSO median 0, no signal -100 | GFP signal change (wild-type ribosome), % (test concentration not listed) | 1.6% of 350,000 active | AID 720706;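 active = significant combined selectivity score with lowered wild-type GFP, culture density cut under 30%, mutant RFP and density less affected; inactive = any of these conditions unmet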; note: one replicate is shown; some compounds called inactive have numbers as strong as hits
Beta2AR agonist: human beta-2 adrenergic receptor agonism by FAP; 0.43% of 340,000 active; P07550; response, % (no concentration beside the values); Am2.2-beta2AR cells, FAP receptor internalization, flow cytometry; reference of the scale not given here;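 active = response above a set limit, near 3 SD of response in nonfluorescent compounds, cut at about 42% in these data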;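 note: stock transfer was 100 nL into about 11 µL; a reference agonist was the positive control; negative values mostly stem from fluorescent compounds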
ALR H2O2 inh: human ALR oxidase inhibition via reduced H2O2; P55789; purified ALR, DTT oxidation, H2O2 HRP-luminol luminescence; inhibition, % (no concentration beside the values); 3.8% of 290,000 active; AID 485317;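 active = mean and each replicate at 75% or more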;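 note: stock transfer was 7.5 nL into about 7.5 µL; 0% = neutral wells and 100% = wells with inactivated enzyme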
Ecoli growth: inhibitors of Escherichia coli growth | OD600, 23 h; stronger effect = lower value | OD600 absorbance (test concentration not listed) | 0.21% of 330,000 active | AID 1053175;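 active = OD600 absorbance below the run mean of sample wells minus 3.6 SD, in any replicate, cut at about 0.56 in these data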;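 note: stock transfer was 300 nL into about 60 µL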
FGF22 binding: shifts melting point of recombinant human FGF22; Q9HCT0; recombinant FGF22 thermal shift, SYPRO orange fluorescence; percent of sucrose octasulfate shift, DMSO zero; calls only at 9.99 µM; 1.5% of 340,000 active; AID 651658;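 active = melting point raised past a set limit in the mean and every replicate; three in four hits are not shown here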
Target sequence (Q9HCT0 whole entry, looked up): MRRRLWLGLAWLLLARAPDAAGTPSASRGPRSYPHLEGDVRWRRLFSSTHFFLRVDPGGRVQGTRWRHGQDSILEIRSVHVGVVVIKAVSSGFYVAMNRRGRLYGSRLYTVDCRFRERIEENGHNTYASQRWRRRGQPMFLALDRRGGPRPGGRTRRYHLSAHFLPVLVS
HNF4A DNA FP: change in binding of human HNF4 alpha to DNA | AID 1224865 | P41235 | activity change, % at 10 µM | 0.3% of 360,000 active | HNF4a-FITC DNA binding, fluorescence polarization, 1 h; in the data active = activity change above about 30%, passing the limit was not always enough;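 note: controls were the assay level and a saturating level of protein; the project sought stronger binding though the title names inhibitors; some compounds called inactive have numbers as strong as hits; positive values seem to mean higher polarization but the record does not say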
Target sequence (P41235 whole entry, looked up): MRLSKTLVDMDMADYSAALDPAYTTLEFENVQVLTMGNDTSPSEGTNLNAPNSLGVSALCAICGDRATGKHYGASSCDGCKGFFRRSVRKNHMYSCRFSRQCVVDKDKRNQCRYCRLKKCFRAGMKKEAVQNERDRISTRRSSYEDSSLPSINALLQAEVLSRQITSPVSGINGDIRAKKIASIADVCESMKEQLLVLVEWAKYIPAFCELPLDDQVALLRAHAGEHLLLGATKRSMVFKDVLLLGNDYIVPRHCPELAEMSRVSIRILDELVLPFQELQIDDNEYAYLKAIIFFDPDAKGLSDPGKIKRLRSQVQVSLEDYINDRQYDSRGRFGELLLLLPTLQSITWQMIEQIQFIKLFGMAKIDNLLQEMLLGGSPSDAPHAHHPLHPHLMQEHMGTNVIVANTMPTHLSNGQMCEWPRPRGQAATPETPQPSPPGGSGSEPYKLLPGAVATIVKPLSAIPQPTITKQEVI
UCH37 inh: blocks the human deubiquitinase UCH37; 0.33% of 330,000 active; inhibition, % (no concentration beside the values); Q9Y5K5; purified proteasome/UCH37, Ub-AMC cleavage fluorescence;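 active = mean of two replicates above 20%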;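 note: 0% = compound-free wells with enzyme and 100% = wells lacking proteasome; stock transfer was 100 nL into about 20 µL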
Target sequence (Q9Y5K5 whole entry, looked up): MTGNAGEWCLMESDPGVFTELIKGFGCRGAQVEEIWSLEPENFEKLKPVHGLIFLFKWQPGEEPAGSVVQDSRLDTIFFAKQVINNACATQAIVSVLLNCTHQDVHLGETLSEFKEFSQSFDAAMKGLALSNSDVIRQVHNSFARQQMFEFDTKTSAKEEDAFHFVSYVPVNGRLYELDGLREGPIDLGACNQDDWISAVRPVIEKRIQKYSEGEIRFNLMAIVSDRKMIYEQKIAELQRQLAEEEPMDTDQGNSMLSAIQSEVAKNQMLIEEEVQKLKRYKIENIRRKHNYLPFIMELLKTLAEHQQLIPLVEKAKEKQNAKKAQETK
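Material: Human UCH37 enzyme supplied as purified proteasome complex | Schedule: 30 min preincubation with enzyme, 25 min cleavage at room temperature | Detection: AMC fluorescence 355/460 nm | Measure: % inhibition of Ub-AMC cleavage fluorescence | Controls: Wells without proteasome as full block, compound-free enzyme plus substrate as uninhibited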
rRNA inh HTS OD600: recorded beside rRNA inh HTS, whose call it bears; OD600 change, %; measured here: OD600 growth;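 optical density of the mix in the first replicate; 0 = DMSO median and -100 = no signal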
rRNA inh HTS RFP: further read-out of rRNA inh HTS, marked with its call; RFP signal change, %; measured here: RFP humanized mutant strains;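 first replicate; 0 = DMSO median and -100 = no signal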
Active calls of the source: *; i = inactive; · = no result given; & = joins results of further samples. An excerpt; rates above refer to the full screens.

Order of values – UCH37 inh, HNF4A DNA FP, Ecoli growth, rRNA inh HTS, FGF22 binding, ALR H2O2 inh, Beta2AR agonist, rRNA inh HTS RFP, rRNA inh HTS OD600
1) COc1cc(C2=NOC(C(=O)NCc3cccnc3)C2)cc(OC)c1OC (stereo unspecified)
→ 1.1, 3.4, 0.67, 9, i, -5, 4, 1.9, -1
2) COc1ccc(NC(=O)n2nc(OC(=O)c3cccs3)cc2N)cc1
→ 5.4, 3.2, 0.62, 0, i, ·, 8, -0.9, -1
3) CCS(=O)(=O)N1Cc2ccccc2CC1C(=O)NCCc1ccccc1 (stereo unspecified)
→ 1.0, 0.9, 0.66, 10, i, -7, 3, 2.2, 12
4) Cc1ccc(S(=O)(=O)NCC(=O)OCc2nnc(-c3ccccc3)o2)cc1
→ 4.1, 3.6, 0.69, 16, i, -5, 6, -0.7, 9
5) Cc1[nH]ccc(=O)c1OCc1ccccc1
→ -0.3, 1.1, 0.72, ·, ·, -8, 6, ·, ·
6) FC(F)(F)Oc1ccccc1C(c1nnnn1C1CCCC1)N1CCN(C/C=C/c2ccccc2)CC1 (stereo unspecified)
→ ·, 0.2, ·, -12, i, ·, ·, 1.1, -28
7) O=c1cc(-c2ccccc2)nc2n1Cc1ccccc1-2
→ 3.8, 0.6, 0.72, ·, ·, 0, -24, ·, ·
8) C=CCn1c(SCC(=O)Nc2ccc(F)cc2)nc2cc(C(=O)O)ccc2c1=O
→ 0.7, -1.8, 0.7, -3, i, ·, 4, -3.3, -7
9) CC1=C(C(=O)OCC(C)C)C(c2cc3c(cc2Br)OCO3)NC(=O)N1C (stereo unspecified)
→ -0.4, 2.1, 0.64, ·, ·, 5, -1, ·, ·
10) O=C(CN1CCN(C(=O)c2ccccc2)CC1)Nc1ccccc1
→ 3.1, 2.3, 0.7, 3, i, -1, 0, -1.4, 5
11) CCOC(=O)c1[nH]c(C)c(/C(O)=C2\C(=O)C(=O)N(CCCn3ccnc3)C2c2ccncc2)c1C (stereo unspecified)
→ 8.9, 1.7, 0.77, ·, ·, 11, -1, ·, ·
12) O=C(COC(=O)CCOc1ccccc1)Nc1cc(S(=O)(=O)N2CCCCC2)ccc1Cl
→ 2.2, 9.3, 0.72, 2, i, 4, -3, 7.8, 3
13) COc1ccc2nc3oc(C(=O)N4CCN(c5cccc(Cl)c5)CC4)cc3cc2c1
→ -14, 3.2, 0.75, ·, ·, -6, -3, ·, ·
14) CN1OC[C@@H]2CN(S(=O)(=O)c3ccccc3)[C@H](c3ccccc3Br)C[C@@H]21
→ ·, -1.9, ·, -2, i, ·, ·, 0.9, -2
15) CCOC(=O)c1cc(OC(C)=O)c2ccc(OC)c(OC)c2c1
→ ·, 2.4, ·, 4, i, ·, ·, -1.9, -40
16) N#Cc1cc(C(=O)c2cc(Br)ccc2O)cn(C2CC2)c1=O
→ -1.9, 6.2, 0.74, ·, ·, 0, 1, ·, ·
17) CCCCN(Cc1cc2cc(OC)ccc2[nH]c1=O)C(=O)c1ccccn1
→ -84, 4.3, 0.8, ·, ·, -20, -7, ·, ·
18) C/C(=N/NC(=O)CNC(=O)c1ccco1)c1ccc(Cl)cc1
→ ·, 0.0, ·, 1, i, 8, -8, 0.7, -5
19) O=C(NC(=O)c1cccc(F)c1)OC[C@@H]1CCCN2CCCC[C@H]12
→ 3.8, -3.7, 0.67, 7, i, ·, 0, -1.4, 12
20) Cc1cc(O)cc(O)c1C(=O)Cc1cscn1
→ 5.2, 1.5, 0.75, ·, ·, 5, -8, ·, ·
21) CSc1ccc(NC(=O)NN(c2ccccc2)C2CCS(=O)(=O)C2)cc1 (stereo unspecified)
→ ·, 0.2, ·, -4, ·, ·, ·, 1.2, -9
22) Cc1nn(C)c(-c2n[nH]c(=S)n2Cc2ccco2)c1Cl
→ 4.9, -4.4, 0.71, -1, i, 33, -5, -6.6, -6
23) CCOc1ccc(Br)cc1S(=O)(=O)N1CCSC1
→ 1.9, 4.2, 0.63, 3, i, 1, -5, 1.8, 6
24) COc1ccccc1-c1nc(C#N)c(N2CCC(C(N)=O)CC2)o1
→ i, -0.2, 0.7, ·, ·, -8, 2, ·, ·
25) CCN1CCc2c(OCc3ccc(C(=O)OC)o3)cccc2C1=O
→ -3.2, 3.1, 0.73, -4, i, -2, 10, 4.1, 2
26) O=C(COc1cccnc1[N+](=O)[O-])Nc1c(Cl)cccc1Cl
→ 0.2, -2.6, 0.61, -8, i, -6, -3, -2.5, 2
27) CCC(C)NC(=O)c1cc(-c2cccs2)nc2ccccc12 (stereo unspecified)
→ -261, 0.1, 0.67, 7, i, -16, -6, -1.5, 1
28) CN(C)C=Nc1nc2ccccc2nc1N1CCCC1
→ -70, -4.0, 0.71, 23, i, ·, 3, 4.7, 12
29) O=C(CSc1nnnn1-c1ccccc1)Nc1ccc(N2CCOCC2)cc1
→ 2.8, 3.4, 0.63, 5, ·, 8, 0, -1.8, 5
30) CCOC(=O)C1CCN(C(=O)c2ccc(Br)o2)CC1
→ 4.3, 5.9, 0.7, ·, ·, -5, -5, ·, ·

Structural class, the entries above with an aryl methoxy group
Order of values – UCH37 inh, HNF4A DNA FP, Ecoli growth, rRNA inh HTS, FGF22 binding, ALR H2O2 inh, Beta2AR agonist, rRNA inh HTS RFP, rRNA inh HTS OD600
1) COc1cc(C2=NOC(C(=O)NCc3cccnc3)C2)cc(OC)c1OC (stereo unspecified)
→ 1.1, 3.4, 0.67, 9, i, -5, 4, 1.9, -1
2) COc1ccc(NC(=O)n2nc(OC(=O)c3cccs3)cc2N)cc1
→ 5.4, 3.2, 0.62, 0, i, ·, 8, -0.9, -1
13) COc1ccc2nc3oc(C(=O)N4CCN(c5cccc(Cl)c5)CC4)cc3cc2c1
→ -14, 3.2, 0.75, ·, ·, -6, -3, ·, ·
15) CCOC(=O)c1cc(OC(C)=O)c2ccc(OC)c(OC)c2c1
→ ·, 2.4, ·, 4, i, ·, ·, -1.9, -40
17) CCCCN(Cc1cc2cc(OC)ccc2[nH]c1=O)C(=O)c1ccccn1
→ -84, 4.3, 0.8, ·, ·, -20, -7, ·, ·
24) COc1ccccc1-c1nc(C#N)c(N2CCC(C(N)=O)CC2)o1
→ i, -0.2, 0.7, ·, ·, -8, 2, ·, ·

The list goes on:
Order of values – UCH37 inh, HNF4A DNA FP, Ecoli growth, rRNA inh HTS, FGF22 binding, ALR H2O2 inh, Beta2AR agonist, rRNA inh HTS RFP, rRNA inh HTS OD600
31) O=C(CCC(=O)Nc1ccc(F)cc1)N/N=C/c1ccc(O)cc1
→ ·, -3.7, ·, 4, i, 99*, 10, 1.0, 10
32) CCCCCCCc1n[nH]c(=S)n1Cc1ccccc1
→ 4.0, 3.3, 0.7, -20, i, -2, -2, -2.4, -24
33) CCOC(=O)c1ccccc1NC1OC(=O)c2ccccc21 (stereo unspecified)
→ -71, -1.0, 0.69, ·, ·, -1, 1, ·, ·
34) CCCCn1c(N)c(N(CCOC)C(=O)CSc2nnc(-c3ccncc3)n2CCC)c(=O)[nH]c1=O
→ 1.4, -1.4, 0.71, 4, ·, -9, 0, -1.6, 9
35) COc1cccc(N2C(=NC(=O)C3CCCO3)SC3CS(=O)(=O)CC32)c1 (stereo unspecified)
→ 1.9, 2.9, 0.68, 8, i, -2, -1, -4.5, 0
36) CC1CCC(NC(=O)C2CCN(C(=O)Nc3ccccc3)CC2)CC1 (stereo unspecified)
→ 1.0, 1.6, 0.66, 7, i, 0, -6, -3.5, 8
37) O=c1cc2c(nn1Cc1cccc(Cl)c1)-c1ccccc1CC2
→ 0.4, -5.1, 0.72, ·, ·, -6, -6, ·, ·
38) Cc1cc(=O)oc2cc(OCCSc3nnc(-c4ccccc4)o3)ccc12
→ -17, -2.5, 0.71, ·, ·, -7, -14, ·, ·
39) O=c1[nH]cnc2sc(-c3ccccc3)cc12
→ -1.7, -1.3, 0.66, 6, ·, -2, 4, -1.1, 3
40) CCCCN(C)CCCNC(=O)C1CC(=O)N(Cc2ccc(OC)cc2)C1 (stereo unspecified)
→ 0.0, -1.2, 0.67, ·, ·, 2, -3, ·, ·
41) O=C(O)CSc1nc2ccccc2n1C1CCCCC1
→ -1.3, -0.6, 0.69, -22*, i, -6, -7, 0.8*, -6.1*
42) Cn1c(SCC2CCCCC2)nnc1-c1ccncc1
→ 2.9, 0.0, 0.72, ·, ·, -1, -8, ·, ·
43) CS(=O)(=O)c1ccc(-c2nnc(NC(=O)c3ccc(S(=O)(=O)N4CCCC4)cc3)o2)cc1
→ 4.8, 4.3, 0.66, 17, ·, 2, 1, -1.0, 18
44) CCOC(=O)CCC(NC(=O)c1ccc(NCN2C(=O)c3ccccc3C2=O)cc1)C(=O)OCC (stereo unspecified)
→ 3.6, 3.0, 0.7, ·, ·, -6, 18, ·, ·
45) CCOc1ccc(-c2nnc(NC(=O)CCCOc3cccc(C)c3)o2)cc1
→ 1.7, -3.4, 0.74, ·, ·, -8, 6, ·, ·
46) O=C(Cn1cnc2c(cnn2-c2ccccc2)c1=O)OCc1ccccc1
→ 1.1, 2.8, 0.72, ·, ·, 0, 0, ·, ·
47) COc1cccc(NC(=O)N(C)C[C@H]2OCc3cn(nn3)CCCC(=O)N([C@@H](C)CO)C[C@@H]2C)c1
→ ·, 0.0, ·, 2&0, i, ·, ·, -4.8&-0.4, 1&5
48) O=S(=O)(c1ccc(Cl)cc1)c1nc(-c2ccco2)oc1N1CCCCC1
→ 4.7, 0.2, 0.73, 5, i, 6, -14, 0.3, 2
49) COc1ccc([C@H]2C[C@@H](O)[C@H](n3cc(C4CC4)nn3)CN2C(=O)c2cccs2)cc1
→ ·, 32, ·, 8, i, ·, ·, 0.7, 7
50) Cc1cc(C)n(CC(=O)NNC(=O)C2CC(=O)N(Cc3ccccc3Cl)C2)n1 (stereo unspecified)
→ 3.6, -1.1, 0.7, 6, i, -4, 2, -1.6, 2
51) COc1ccc(C(=O)Nn2c(SCC(=O)c3ccccc3)nc3ccccc3c2=O)cc1
→ 1.8, 1.5, 0.73, ·, ·, -1, 8, ·, ·
52) Nc1ccc2c(c1)C(=O)CCC2
→ ·, 5.3, ·, 0, i, ·, ·, 0.6, 3
53) CS/C(=C\[N+](=O)[O-])Nc1ccc(C)cc1
→ 4.4, -2.6, ·, 1, i, 9, 9, 0.1, 0
54) O=C(C[C@@H]1C/C=C\CCC(=O)OC[C@@H]2CCCN2C1=O)N[C@H](CO)Cc1ccccc1
→ 3.9, -1.0, ·, 11, i, -1, -8, 0.4, 9
55) O=C(Nc1nnc(SCC(=O)N2CCCCC2)s1)C1CCCCC1
→ 1.3, -0.6, 0.7, ·, ·, 31, -8, ·, ·
56) Cc1ccc2c(Cl)c(C(=O)NCc3cccnc3)sc2c1
→ 0.7, -21, 0.7, ·, ·, -1, -9, ·, ·
57) Cc1cc(C(=O)CNCc2ccco2)c(C)n1-c1ccc(F)cc1
→ -0.4, -1.4, 0.67, ·, ·, -5, 0, ·, ·
58) COc1ccccc1NC(=O)N1CCC(C(=O)c2ccc(Cl)cc2)CC1
→ 0.6, 0.1, 0.68, -21, i, -13, -5, -4.1, -25
59) COCCNC(=O)c1ccccc1-c1ccccc1C(=O)O
→ 1.7, 0.8, 0.72, ·, ·, -1, 6, ·, ·
